High-throughput results from PubChem.
RanGTP-Imp inh: disruptors of Ran-importin-beta complex formation – biochemical, FRET, CFP-Ran, YFP-importin-beta, homogeneous, primary screen; cell-free CFP-Ran/YFP-importin-beta FRET ratio; inhibition, % (test concentration not listed); 300,000 tested, 1.1% active; AID 2216;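 active means most replicates above 15%; inconclusive means exactly half above 15%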;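 further: 0% = DMSO wells and 100% = Ran loaded with GDP instead of GTP; wells of about 40 µL received 100 nL stock; the first replicate is given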
FGF22 binding: binders of recombinant human FGF22 by thermal shift | 340,000 tested, 1.5% active | AID 651658 | calls only at 9.99 µM | SYPRO orange fluorescence; percent of sucrose octasulfate shift, DMSO zero;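 active means melting point raised past a set limit in the mean and every replicate; inconclusive means no clear call; three in four hits are not shown here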
Target sequence (Q9HCT0 whole entry, looked up): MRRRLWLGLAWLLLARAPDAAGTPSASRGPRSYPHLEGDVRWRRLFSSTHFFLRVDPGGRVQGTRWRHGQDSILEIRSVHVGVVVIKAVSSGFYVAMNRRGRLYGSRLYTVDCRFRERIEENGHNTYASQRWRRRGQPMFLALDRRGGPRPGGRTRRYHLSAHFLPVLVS
UCH37 DUB inh: human UCH37 deubiquitinating enzyme inhibition; Q9Y5K5; purified proteasome/UCH37, Ub-AMC cleavage fluorescence; inhibition, % (no concentration beside the values); 330,000 tested, 0.33% active;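 active means mean of two replicates above 20%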;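 further: 0% = compound-free wells with enzyme and 100% = wells lacking proteasome; stock transfer was 100 nL into about 20 µL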
Target sequence (Q9Y5K5 whole entry, looked up): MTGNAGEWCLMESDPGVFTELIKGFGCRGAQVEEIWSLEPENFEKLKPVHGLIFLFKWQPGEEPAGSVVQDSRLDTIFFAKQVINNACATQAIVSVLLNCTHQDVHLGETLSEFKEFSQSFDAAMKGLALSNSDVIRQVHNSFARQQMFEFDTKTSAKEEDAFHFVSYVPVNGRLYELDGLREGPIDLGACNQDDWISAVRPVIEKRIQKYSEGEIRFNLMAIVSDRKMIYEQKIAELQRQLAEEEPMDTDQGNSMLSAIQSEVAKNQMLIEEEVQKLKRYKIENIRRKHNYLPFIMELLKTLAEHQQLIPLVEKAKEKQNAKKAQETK
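Material: Human UCH37 enzyme supplied as purified proteasome complex | Schedule: 30 min compound-proteasome preincubation then 25 min substrate reaction, room temperature | Detection: AMC fluorescence from Ub-AMC cleavage, excitation 355 nm, emission 460 nm | Benchmarks: Wells without proteasome as full block, compound-free enzyme plus substrate as uninhibited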
HNF4A DNA FP: change in binding of human HNF4 alpha to DNA. HNF4a-FITC DNA binding, fluorescence polarization, 1 h. activity change, % at 10 µM. 360,000 tested, 0.3% active; in the data active means activity change above about 30%, passing the limit was not always enough;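 further: controls were the assay level and a saturating level of protein; the project sought stronger binding though the title names inhibitors; some compounds called inactive have numbers as strong as hits; positive values seem to mean higher polarization but the record does not say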
E coli growth: blocks Escherichia coli growth; OD600, 23 h; active compounds read low; OD600 absorbance (concentration not given with the values); 330,000 tested, 0.21% active; AID 1053175;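 active means OD600 absorbance below the run mean of sample wells minus 3.6 SD, in any replicate, cut at about 0.56 in these data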;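 further: stock transfer was 300 nL into about 60 µL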
AF4-AF9 inh: blocks AF4 peptide binding to human AF9. AID 651704. 350,000 tested, 0.47% active. inhibition, % at 10 µM. AlphaScreen, biotin-AF4 peptide binding to FLAG-AF9. P42568;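 active means every replicate reaching a set inhibition limit, whatever the replicate mean, cut at about 25% in these data; inconclusive means mean inhibition reaches that limit but some replicates miss it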;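 further: 0% = plate neutral control median and 100% = total signal loss; the record names both 10 and 1 µM as test concentration; the first replicate is given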
Target sequence (P42568 whole entry, looked up): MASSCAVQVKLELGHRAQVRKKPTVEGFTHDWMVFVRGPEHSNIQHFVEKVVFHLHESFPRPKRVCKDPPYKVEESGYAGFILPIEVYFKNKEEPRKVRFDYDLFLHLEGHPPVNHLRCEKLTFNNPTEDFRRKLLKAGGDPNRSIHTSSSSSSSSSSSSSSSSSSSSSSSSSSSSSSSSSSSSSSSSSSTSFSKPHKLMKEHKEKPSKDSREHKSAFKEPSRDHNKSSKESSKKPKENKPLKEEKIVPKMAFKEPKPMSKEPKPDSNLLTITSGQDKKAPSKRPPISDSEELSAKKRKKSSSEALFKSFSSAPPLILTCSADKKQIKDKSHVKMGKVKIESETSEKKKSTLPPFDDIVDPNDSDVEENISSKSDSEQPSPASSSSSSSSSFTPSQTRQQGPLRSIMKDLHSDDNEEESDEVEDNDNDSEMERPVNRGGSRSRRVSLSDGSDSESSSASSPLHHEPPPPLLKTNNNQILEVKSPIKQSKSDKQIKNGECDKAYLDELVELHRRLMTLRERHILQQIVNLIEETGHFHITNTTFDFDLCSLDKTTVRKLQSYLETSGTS
Vif TR-FRET: inhibitors of Vif binding to APOBEC3G peptide, primary screen, biochemical, TR-FRET, GST-Vif 1-94, biotin-A3G peptide, dose response retest (AID 1117319). 260,000 tested, 0.57% active. one-dose inhibition, %; IC50 in µM for titrated hits. TR-FRET GST-Vif / biotin-A3G peptide binding; higher % means a stronger effect; test concentration not given here; strong numbers were not always called active;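 active means above the screen mean plus three standard deviations and confirmed in dose response; inconclusive means results disagree or hit not tested in dose response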;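 further: Vif residues 1-94 fused to GST binding biotinylated APOBEC3G peptide 110-148; 0% = full assay without inhibitor and 100% = GST in place of GST-Vif; retest series ran down from 100 µM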
* hit, by the source's call; i = inactive; ? = inconclusive; · = no result given; & = joins results of further samples.

SMILES	RanGTP-Imp inh	FGF22 binding	UCH37 DUB inh	HNF4A DNA FP	E coli growth	AF4-AF9 inh	Vif TR-FRET
Cc1ccc(/C=N/NC(=O)C(C)NC(=O)c2ccccc2)cc1 (stereo unspecified)	6.1	i	·	-0.6	·	-1.0	?
O=C(O)c1cc(N2C(=O)CCC2=O)ccc1Cl	-5.9	i	2.0	1.8	0.68	-4.2	·
CC(C)c1ccc2[nH]c(O)c(N=NC(=O)c3cccc(S(=O)(=O)Nc4ccc(Cl)cc4)c3)c2c1	3.9	i	9.5	0.7	0.73	0.4	32%
O=C(CN1CCC(c2nc3ccccc3s2)CC1)NCc1cccs1	9.2	·	2.3	-1.3	0.65	·	0%&-5%
COc1ccc(-c2cc(CCC(=O)N3CCN(c4cc(C)ccc4C)CC3)on2)cc1	·	i	-1.9	1.7	0.69	0.0	-5%
CCOc1ccc(/C=N/Nc2cc(N3CCOCC3)nc(C)n2)c(O)c1	1.4	i	·	1.2	·	-1.9	·
CCS(=O)(=O)c1ncc(Cl)c(C(=O)Nc2ccc(S(=O)(=O)N(C)c3ccccc3)cc2)n1	3.2	i	·	3.8	·	1.0	·
COCCCNC(=O)CC(NS(=O)(=O)c1ccc(C)cc1)c1ccco1 (stereo unspecified)	-4.6	·	0.9	-4.0	0.77	·	1%
Fc1ccc(-c2cn(-c3ccccc3)c3[n+]2CCS3)cc1	0.4	i	3.6	0.2	0.65	·	12%
CC(=O)c1ccc(OCCCC(=O)NCc2nnc3ccccn23)cc1	·	i	4.0	-0.5	0.67	-25	-5%
CCOCCCNCc1ccc(OCc2ccc(F)cc2)c(OC)c1	-0.1	i	·	-4.9	·	-0.3	-10%
Cc1nn(-c2ccccc2)c(C)c1/C=N/n1c(-c2ccc(C(C)(C)C)cc2)n[nH]c1=S	2.6	·	·	0.9	·	·	5%
O=C(CSc1nnnn1C1CCCC1)NCc1ccccc1	1.3	·	2.4	-0.1	0.67	·	22%
O=C(NCCn1cc(SCc2ccc(F)cc2)c2ccccc21)c1ccccc1F	1.3	·	1.8	-1.9	0.79	·	12%
CCOC(=O)N1CCN(C(=O)CN(c2ccc(Cl)c(C(F)(F)F)c2)S(C)(=O)=O)CC1	2.8	·	4.4	3.2	0.71	·	?
CCc1ccccc1NC(=S)N(Cc1cccs1)C1CCCC1	-0.6	i	2.0	3.7	0.74	-1.4	·
COc1ccccc1N(CC(O)Cn1c2ccccc2c2ccccc21)S(=O)(=O)c1ccccc1 (stereo unspecified)	9.2	i	7.2	-0.5	0.75	-4.2	0%
CSc1nc2ccccc2n1CC(=O)N1CCCCC1	-3.3	·	2.2	1.4	0.72	·	5%
CN(Cc1cn(Cc2ccccc2)nc1-c1ccc2c(c1)OCO2)Cc1nccn1C	0.4	i	-1.1	1.3	0.71	13	6%
CC1CCN(C(=O)C2CCN(S(=O)(=O)c3cccc4nsnc34)CC2)CC1	-3.1	i	2.5	-0.8	0.72	1.0	·
COC(=O)c1cc(C(=O)c2cccc(Cl)c2Cl)cn1C	0.7	·	3.8	-1.0	0.73	·	-1%
Cc1cc(C)n(-c2nc(NCC3CCCO3)c3c4c(sc3n2)COC(C)(C)C4)n1 (stereo unspecified)	-2.1	·	-304	·	0.75	·	0%
CC1CCC(NS(=O)(=O)c2ccc(Cl)nc2)CC1 (stereo unspecified)	3.2	i	0.7	-2.0	0.65	0.3	-2%
CSc1[nH]c(=O)c(C(=O)O)cc1C#N	-4.8	·	-0.4	-3.2	0.69	·	10%
CCOC(=O)Cn1c(N)c(C(=O)OC)sc1=S	5.1	i	11	0.7	0.67	3.8	-1%
O=C1COc2ccc(C(=O)c3ccccc3C(=O)O)cc2N1	-4.0	·	2.3	6.5	0.67	·	20%
N/C(=N\OC(=O)c1ccc(Cl)cc1Cl)c1ccc(Cl)cc1	3.6	·	-4.3	-1.7	0.75	·	7%
CC(=O)N/C(=C\c1ccccc1)C(=O)OCc1cccc(S(=O)(=O)N(C)C)c1	3.4	i	6.3	-0.9	0.71	-1.8	-3%
NC(=O)C1CCN(C2CC(=O)N(Cc3ccc(N4CCCC4=O)cc3)C2=O)CC1 (stereo unspecified)	-0.8	·	4.1	-1.2	0.71	·	13%
O=C(O)COc1ccc(NC(=O)c2ccco2)cc1	4.2	·	1.5	-2.7	0.65	·	73%
O=C(CSc1ncn[nH]1)N1N=C2/C(=C/c3ccccc3)CCCC2C1c1ccccc1 (stereo unspecified)	1.8	i	-8.4	0.3	0.69	6.9	·
CC(C)(O)CC[C@@H](O)[C@](C)(O)C1CC[C@@]2(O)C3=CC(=O)[C@@H]4C[C@@H](O)[C@@H](O)C[C@]4(C)C3CC[C@]12C (stereo partly specified)	·	i	-0.9	-2.2	·	0.1	·
Clc1cccc(CN2CCCCCC2)c1Cl	0.8	i	4.4	-0.8	0.63	-6.1	·
Oc1ccccc1/C=N/N1CCCCC1	-4.4	i	·	2.2	·	-2.1	6%
Cc1ccc(S(=O)(=O)N2C[C@H]3n4c(=O)ccc(=O)n4C[C@H](OC(=O)Nc4cccs4)[C@@]3(O)C2)cc1	·	i	·	1.0	·	-0.7	9%
CCn1c(=O)c2c(nc(SCC(=O)NCC3CCCO3)n2C)n(C)c1=O (stereo unspecified)	0.6	i	-1.0	-0.4	0.67	5.2	4%
CCC(=O)Nc1ccc(C(=O)Nc2c[nH]c(=O)[nH]c2=O)cc1	2.6	i	0.8	2.0	0.67	-0.2	0%
O=C(CSc1nccn1-c1ccc(Cl)cc1)Nc1ccc2c(c1)OCO2	9.7	·	2.7	-1.8	0.75	·	-2%
CCC1(c2ccccc2)NC(=O)N(C)C1=O (stereo unspecified)	·	i	1.2	-0.6	0.7	-1.9	·
COc1cc(C(=O)N2CCCCC2)ccc1OCC(=O)Nc1ccc(F)cc1	·	i	1.1	3.1	0.69	0.2	-6%
Cc1ccc(S(=O)(=O)Nc2ccccc2C(=O)Nc2nc(-c3ccc(F)cc3)cs2)cc1	0.5	i	-63	0.9	0.66	4.2	13%
O=C(NCCc1cccc(F)c1)C1CC(O)CN1C(=O)Nc1ccccc1 (stereo unspecified)	·	i	·	-0.5	·	-2.5	-2%
COCC1CCN(C(=O)c2oc3c(F)cccc3c2C)C1 (stereo unspecified)	1.4	i	2.4	-0.6	0.7	-0.5	·
CC(C)OCCCNC(=O)C1CCC(CNS(=O)(=O)c2ccc(Cl)cc2)CC1 (stereo unspecified)	1.5	·	1.8	-0.1	0.73	·	6%
Cc1ccc(/C([O-])=C(/C(=S)NCCN2CCOCC2)[n+]2ccccc2)cc1[N+](=O)[O-]	-0.4	i	3.6	0.8	0.71	-22	4%
CCOc1ccc(C(=S)NC2CCCCC2)cc1OCC	0.1	i	6.0	3.2	0.69	-4.8	·
Cc1cc(/C=N/Nc2ccc([N+](=O)[O-])cn2)c(C)n1-c1ccccc1	-2.1	·	·	7.3	·	·	6%
CCN(C(=O)COc1cc(OC)ccc1C(C)=O)C1CCS(=O)(=O)C1 (stereo unspecified)	·	i	4.8	2.1	0.67	-4.4	·
C/C(=N\NC(=O)c1csc(C)c1C)c1ccc(C)s1	-4.1	i	·	-0.1	·	3.9	0%
O=C(Oc1ccc2c(-c3ccccc3)cc(=O)oc2c1)c1cccs1	-0.2	·	4.6	2.1	0.69	·	20%
O=C(COC(=O)CNS(=O)(=O)c1ccc(Br)cc1Cl)NC1CCCC1	3.0	i	3.6	-0.6	0.66	0.7	1%
O=C(NCCc1ccccc1)C(=O)NCC1OCCN1S(=O)(=O)c1cccs1 (stereo unspecified)	-0.2	i	1.5	-0.4	0.72	-6.2	·
Cc1ccc(-c2nnc(SCC(C)C)n2C)cc1	2.5	·	2.5	2.4	0.67	·	-1%
COc1ccc2[nH]c3c(=O)n(/N=C/[C@H]4C(C)C=C(C)CC4C)c(=O)[nH]c3c2c1 (stereo partly specified)	-0.4	i	·	1.5	·	-1.3	·
O=C(NCCc1csc(-c2ccccc2)n1)c1ccccc1F	1.8	i	3.0	-1.2	0.65	-5.3	-3%
CC(C)Cc1nc(SCC(=O)N2CC(C)OC(C)C2)c2c(=O)n(C)c(=O)n(C)c2n1 (stereo unspecified)	4.1	i	-0.5	5.9	0.65	-1.2	·
Cc1ccc(CN=C(Nc2ccccc2)NC2CCCCC2)cc1	-1.8	i	-2.4	1.8	0.7	0.5	-8%
COc1ccc(-n2c(Cc3cc(=O)[nH]c(=O)[nH]3)nnc2SCC(=O)Nc2cc(C(F)(F)F)ccc2Cl)cc1	-3.4	i	6.1	-1.8	0.71	-0.3	·
COCCN(C(=O)CSc1ccc2c(c1)OCCO2)c1c(N)n(CC(C)C)c(=O)[nH]c1=O	·	i	2.9	0.8	0.66	-2.3	0%
CCc1cc2c(N3CCN(c4ccccc4)CC3)ncnc2s1	5.7	·	0.1	0.2	0.69	·	5%

Overlap with the part before: 5 entries, then new ones.
SMILES	RanGTP-Imp inh	FGF22 binding	UCH37 DUB inh	HNF4A DNA FP	E coli growth	AF4-AF9 inh	Vif TR-FRET
CC(C)Cc1nc(SCC(=O)N2CC(C)OC(C)C2)c2c(=O)n(C)c(=O)n(C)c2n1 (stereo unspecified)	4.1	i	-0.5	5.9	0.65	-1.2	·
Cc1ccc(CN=C(Nc2ccccc2)NC2CCCCC2)cc1	-1.8	i	-2.4	1.8	0.7	0.5	-8%
COc1ccc(-n2c(Cc3cc(=O)[nH]c(=O)[nH]3)nnc2SCC(=O)Nc2cc(C(F)(F)F)ccc2Cl)cc1	-3.4	i	6.1	-1.8	0.71	-0.3	·
COCCN(C(=O)CSc1ccc2c(c1)OCCO2)c1c(N)n(CC(C)C)c(=O)[nH]c1=O	·	i	2.9	0.8	0.66	-2.3	0%
CCc1cc2c(N3CCN(c4ccccc4)CC3)ncnc2s1	5.7	·	0.1	0.2	0.69	·	5%
O=C(O)c1cccc(NS(=O)(=O)c2cccc3cccnc23)c1	1.0	i	3.9	2.3	0.72	0.4	3%
CCC1=C(OC(=O)N(CC)CC)N2C(=O)OC(=NCC(=O)OC)[C@]2(C)[C@H]2C1=CC[C@H]1C(=O)N(C)C(=O)[C@H]12	-3.7	i	0.8	-8.2	·	-2.0	-1%
Cc1ccc(C)c(N2CCN(C(=O)CCNS(=O)(=O)c3ccc4c(c3)oc(=O)n4C)CC2)c1	-0.9	i	4.6	0.1	0.71	-2.8	·
O=C(COc1ccc(Cl)cc1)N1CCN(c2cccc(C(F)(F)F)c2)CC1	0.4	·	6.6	1.4	0.76	·	-6%
COc1ccc2nc(NC(=O)Nc3ccccc3OC)sc2c1	0.4	i	0.7	-1.2	0.67	-0.2	6%
O=C(Nc1sc2c(c1C(=O)O)CCC2)c1ccc(F)cc1	0.9	·	9.9	2.9	0.67	-9.8	7%
Cc1ccc2c(c1C)C(=O)C(=O)N2	·	i	·	2.3	·	-4.7	·
CC1(C)C2CCC(C2)C1(C)NC(=O)CN1CCN(Cc2ccccc2)CC1 (stereo unspecified)	0.6	i	3.4	2.2	0.72	-1.0	16%
O=C(COc1cc2oc(=O)c3c(c2cc1Cl)CCCC3)NCc1cccnc1	-0.2	i	0.0	-1.1	0.7	0.5	·
COc1ccc(C2=NNC(=O)CC2)cc1	0.3	i	1.9	-3.8	0.69	-2.2	·
CCOc1cccc(NC(=O)/C(C#N)=C\c2cn(CC(=O)O)c3ccccc23)c1	28*	i	4.8	1.2	0.68	3.8	9%
O=C(NN(c1ccccc1)c1ccccc1)c1ccccc1F	1.2	i	-0.5	-2.3	0.71	-5.6	·
COCCNc1nnc(SCC(=O)NC(=O)c2ccccc2)s1	-1.9	i	-0.7	-0.8	0.69	-1.3	10%

The list is partial. The share of hits here may be higher or lower than overall.
